# Screening data deposited in PubChem by several laboratories.
# RN4220 kill = S. aureus RN4220 growth inhibition; OD600, 16 h; inhibition, % (concentration not given with the values); 330,000 tested, 0.33% active; AID 1259311;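 active = z-score of -3 or lower and OD600 up to 0.18 on both plates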;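 note: plate controls were untreated cells for no effect and reference antibiotic for full effect; stock transfer was 100 nL into about 80 µL; one replicate is shown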
# Sa ugtP lethal = compounds lethal to S. aureus RN4220 ugtP deletion mutant | OD600 growth, 16 h; some inactives read as strong as hits | growth inhibition, % (no concentration beside the values) | 330,000 tested, 0.54% active | AID 1259309;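 active = z-score under -3 and OD600 up to 0.15 on both plates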;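 note: plate controls were untreated wells for no effect and antibiotic for full effect; wells of about 80 µL received 100 nL stock; the first replicate is given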
# BJeLR lethal = kills HRASV12-expressing BJeLR cells. BJeLR (HRASV12) viability, CellTiter-Glo ATP luminescence, 48 h; reference of the scale not given here. inhibition, % (no concentration beside the values). 300,000 tested, 0.17% active;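 active = replicate mean above 50%; inconclusive = above 50% but judged a plate artefact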;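 note: 50 nL library stock added to about 25 µL; numbers are from one replicate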
# Mtb hypoxia rep = inhibitors of hypoxia-regulated fluorescent reporter in Mycobacterium tuberculosis | M. tuberculosis hypoxia-regulated fluorescent reporter, fluorescence | fluorescence inhibition, % (no concentration beside the values) | 300,000 tested, 0.1% active | AID 1159583;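 active = 35 to 45% if threefold the growth effect, above 45% if 1.5-fold the growth effect; inactive = the rest, general growth blockers included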;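 note: wells of about 50 µL received 100 nL stock; 0% = vehicle wells and 100% = reference inhibitor wells; whole bacteria with a GFP reporter of the hypoxia response; strong numbers were not always called active; many hits fall short of the cut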
# PrP UTR inh = inhibition of PrP 5' UTR reporter expression; AID 488862; 340,000 tested, 0.35% active; cell-based PrP 5' UTR mRNA reporter, plate reader; inhibition, % (test concentration not listed);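 active = every replicate at 50% or more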;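 note: 0 = median of the neutral control wells; tested in H4 reporter cells; numbers are from one replicate; inactives centre near -14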
# Bead autofluor = flagged as autofluorescent in microsphere protease counterscreen. 360,000 tested, 3.1% active. fluorescence intensity (concentration not given with the values). compound autofluorescence counterscreen, microsphere flow cytometry; active compounds read high. AID 624483;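 active = at least 3 SD above the mean of all compounds, about 16000 in these data; inconclusive = too few beads counted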;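 note: 100 nL of 1 mM stock went into each well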
# Mtb hypoxia rep growth = recorded beside Mtb hypoxia rep, whose call it bears; growth inhibition, %; measured here: M. tuberculosis growth (absorbance);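 0% = vehicle and 100% = reference antibiotic; read after six days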
# Active calls of the source: *; ? = inconclusive; . = not tested or not shown; & = joins results of further samples.
SMILES,RN4220 kill,Sa ugtP lethal,BJeLR lethal,Mtb hypoxia rep,Mtb hypoxia rep growth,PrP UTR inh,Bead autofluor
Cc1ccc(N/C(CSC(N)=O)=N\S(=O)(=O)c2ccc(C)cc2)cc1,.,.,1,.,.,-27,4181
Cn1c(CNC(=O)c2ccco2)nnc1SCC(=O)N1c2ccccc2Sc2ccccc21,-0.7,-4,.,.,.,-14,5835
COc1ccc(S(=O)(=O)N(C)CC(=O)N2CCN(C)CC2)cc1C,1.7,0,-7,2,5,-5,23309*
COC(=O)CN1C(=S)N(C)C(=O)C1CC(=O)Nc1ccccc1 (centres undefined),-1.0,2,7,-1,3,7,7071
COc1cccc(NC(=S)Nc2cccc3ccccc23)c1,-6.1,-2,-6,-5,0,-50,5675
O=C(O)CN1CCN(Cc2ccccc2Cl)C1=O,5.4,6,6,0,-3,-7,10938
CCOC(=O)N1CCN(C(=O)CN(C2CCCCC2)S(=O)(=O)c2ccc(F)cc2)CC1,5.1,-2,1,9,15,-18,9856
CC(C(=O)NC1CCCc2ccccc21)N1CCN(c2ccc(F)cc2)CC1 (centres undefined),2.0,2,0,16,12,-17,2866
Cc1cccc(NC(=O)CSc2nnc(CNC(=O)c3ccco3)o2)c1C,4.8,4,-11,3,7,3,5535
CC(=O)c1cccc(N(CC(=O)N2CCCC2)S(C)(=O)=O)c1,2.3,3,6,7,-1,-23,7490
COc1ccc(NC(=O)CS(=O)c2ccccc2Cl)cc1 (centres undefined),-0.2,1,5,2,-2,-17,5183
COc1ccc(Cc2nnc(NS(=O)(=O)c3ccc([N+](=O)[O-])cc3)s2)cc1,5.2,20,-5,5,-2,-18,6146
CCS(=O)(=O)N1CCN(C(=O)c2cccc(OC)c2)CC1,3.3,9,-10,3,-1,-9,3023
O=C1NC(=O)N(Cc2ccccc2)C(=O)/C1=C/c1cnc(-c2ccccc2)nc1,.,.,0,.,.,-30,4276
COC(=O)CSc1ncnc2c1cnn2Cc1ccccc1,-13,9,-3,1,4,-19,3523
O=C(Nc1ccc2oc(-c3ccncc3)nc2c1)c1ccc([N+](=O)[O-])o1,100*,77,-4,.,.,-16,3724
N#Cc1c(-c2ccccc2)nc(-c2cccnc2)[nH]c1=O,0.6,1,7,14,17,-9,3638
CCc1ccccc1NC(=O)N1C2CCCC1CC(NC(C)=O)C2 (centres undefined),6.5,1,1,-3,7,4,8246
Cc1occc1C(=O)Nc1sc2c(c1C(N)=O)CCC(C(C)(C)C)C2 (centres undefined),-1.3,60,-10,7,-1,-13,4424
Cc1ccc(-c2nn(-c3ccccc3)cc2CSC(=N)N)cc1,.,.,-1,.,.,-14,2665
Cc1cc(NN=Cc2ccccc2F)c2ccccc2n1,10,8,.,-1,5,.,.
c1ccn(-c2ccc(N3CCOCC3)cc2)c1,-14,1,-2,1,-4,-42,3190
CN1C(C(=O)NCc2cccc(C(F)(F)F)c2)CC2Cn3c(nc4cc5ccccc5cc43)C21 (centres undefined),-4.9,-2,-11,-4,-2,-16,3442
CCN1CCC(=NNC(=O)c2ccco2)CC1,1.6,5,-1,7,8,-8,4993
O=[N+]([O-])c1cccc(/C=C/c2nc3ccc([N+](=O)[O-])cc3[nH]2)c1,-3.1,-22,-1,.,.,-25,2320

# In another format: two of the compounds above.
# Second line of a record – RN4220 kill	Sa ugtP lethal	BJeLR lethal	Mtb hypoxia rep	Mtb hypoxia rep growth	PrP UTR inh	Bead autofluor
CC(=O)c1cccc(N(CC(=O)N2CCCC2)S(C)(=O)=O)c1
 : 2.3	3	6	7	-1	-23	7490
COc1ccc(NC(=O)CS(=O)c2ccccc2Cl)cc1 (centres undefined)
 : -0.2	1	5	2	-2	-17	5183

# 7 records picked at random from those above, as already listed:
SMILES,RN4220 kill,Sa ugtP lethal,BJeLR lethal,Mtb hypoxia rep,Mtb hypoxia rep growth,PrP UTR inh,Bead autofluor
COC(=O)CSc1ncnc2c1cnn2Cc1ccccc1,-13,9,-3,1,4,-19,3523
CCN1CCC(=NNC(=O)c2ccco2)CC1,1.6,5,-1,7,8,-8,4993
Cc1cccc(NC(=O)CSc2nnc(CNC(=O)c3ccco3)o2)c1C,4.8,4,-11,3,7,3,5535
COc1cccc(NC(=S)Nc2cccc3ccccc23)c1,-6.1,-2,-6,-5,0,-50,5675
N#Cc1c(-c2ccccc2)nc(-c2cccnc2)[nH]c1=O,0.6,1,7,14,17,-9,3638
Cn1c(CNC(=O)c2ccco2)nnc1SCC(=O)N1c2ccccc2Sc2ccccc21,-0.7,-4,.,.,.,-14,5835
c1ccn(-c2ccc(N3CCOCC3)cc2)c1,-14,1,-2,1,-4,-42,3190

# Remaining list, next part
SMILES,RN4220 kill,Sa ugtP lethal,BJeLR lethal,Mtb hypoxia rep,Mtb hypoxia rep growth,PrP UTR inh,Bead autofluor
CC(C)(O)C#Cc1ccc(CN2CCC(n3nccc3NC(=O)C3CC3)CC2)cc1,2.4,6,-1,1,-2,-3,4256
Cc1[nH]n(-c2cccc(Cl)c2)c(=O)c1/C=N/n1c(C)nc2ccccc2c1=O,.,.,4,.,.,-24,4371
CNC(C(=O)c1ccccc1)C(OC)c1ccc(C)cc1 (centres undefined),3.7,-2,5,3,16,-23,2399
COCCn1c(=O)[nH]c2cc(C(=O)NCCN3CCN(c4ccccc4F)CC3)ccc2c1=O,2.1,4,5,6,8,-12,3631
Cc1onc(-c2c(F)cccc2Cl)c1C(=O)Nc1nc2ccccc2[nH]1,-0.1,6,-2,.,.,-22,5773
O=C(CNC(=O)N1CC(=O)Nc2ccccc21)NCCc1c[nH]c2ccccc12,-1.4,-26,3,.,.,-31,5372
Cc1ccc(OCC(=O)NNC(=O)C(C)Sc2ncnc3sc(C)c(C)c23)cc1 (centres undefined),4.7,-9,0,-1,8,-31,8485
N#CC1=C2SCN(Cc3ccco3)CN2C(=O)CC1c1ccccc1F (centres undefined),0.2,0,-11,4,11,-30,10561
COc1cccc(-c2csc(N3CCN(C(=S)Nc4ccccc4C)CC3)n2)c1,16,-12,.,13,10,-27,4408
O=C(Nc1ccc2[nH]ccc2c1)c1ccc(F)cc1,2.6,0,-3,6,3,-66,6186
CC(C)(C)NCc1cc(Br)ccc1OC1CCCC1,5.4,9,3,.,.,-33,3196
O=C(CCNC(=O)c1ccccc1Cl)Nc1ccc(S(=O)(=O)Nc2nccs2)cc1,2.7,4,.,21,22,-6,2986
O=C(COc1ccc(Br)cc1)NCCCN1CCCC1=O,-0.4,3,.,3,-4,-8,4020
CC(C)Oc1ccc(S(=O)(=O)N2CCOCC2)cc1NC(=O)CN1C(=O)NC2(CCCC2)C1=O,3.3,13,10,2,-5,-16,?
COc1cccc(C(=O)N(Cc2ccc(N(C)C)cc2)C2CCS(=O)(=O)C2)c1 (centres undefined),0.4,7,0,.,.,-16,3201
Cc1ccc(NC(=O)O/N=C/c2cccc([N+](=O)[O-])c2)cc1,.,.,-2,.,.,-25,4393
CCCCCCCOc1ccc(OC(=O)c2cccnc2)cc1,5.5,50,10,8,3,-11,8033
O=C(NN1CCOCC1)c1cccc(COc2cccc(Br)c2)c1,0.7,-2,-8,-1,-1,-16,4706
CCOC(=O)N1CCN(C(=O)CSc2ccc(-c3cccc(OC)c3)nn2)CC1,0.7,9,.,8,3,9,3385
CCn1c(=O)n(CC)c2cc(N3CCCC3)c(NC(=O)c3ccccc3F)cc21,5.3,2,0,-1,12,-4,6059
O=C(CN1C(=O)CSC1=O)Nc1ccc(C(=O)O)cc1,5.6,-5,0,5,5,-13,2817
CC(=O)c1ccc(N2CCN(C(=O)c3ccccc3SCC(=O)NCc3ccco3)CC2)c(F)c1,-0.4,9,.,2,3,-9,2926
Cc1nc(-c2ccccn2)sc1C(=O)O,1.4,4,3,3,6,-32,4244
Oc1ccc(CC2CNCCN2CCc2cccc(F)c2)cc1 (centres undefined),-0.5&4.8,-3&1,.,6&22,7&10,.,.
Cc1cc(C(=O)NCc2ccc(S(N)(=O)=O)cc2)ccc1[N+](=O)[O-],3.4,6,5,1,2,-15,2215

# Continuation.
SMILES,RN4220 kill,Sa ugtP lethal,BJeLR lethal,Mtb hypoxia rep,Mtb hypoxia rep growth,PrP UTR inh,Bead autofluor
CCOc1cccc(N2C(=O)CC(N3CCN(c4nc5ccccc5s4)CC3)C2=O)c1 (centres undefined),5.2,-1,-2,5,4,-12,4534
COc1ccc(-c2nsc3c(N4CCCCC4)ncnc23)cc1,7.0,-2,-3,3,14,72*,9756
Cc1ccc2oc(=O)cc(CN3CCCCC3)c2c1,3.6,3,-2,12,12,8,3807
COc1cc(-c2nc3ccccn3c2N=Cc2cc(OC)c(OC)c(OC)c2)ccc1O,2.3,-2,.,3,6,.,.
O=C(Nc1cccn(Cc2c(Cl)cccc2Cl)c1=O)c1ccccc1Cl,32,73,6,5,10,11,21806*
Cc1ccccc1Cn1nc(C)c(NC(=O)c2ccccc2)c1C,8.8,8,-12,-11,-2,-7,3239
CN(CC(=O)Nc1cccc(F)c1)C(=O)c1ccc(N2CCCCCC2)c([N+](=O)[O-])c1,0.5,-4,3,5,-10,-19,?
COc1ccc(C=N/N=C2/NC(=O)C(c3ccccc3)S2)c(OC)c1 (centres undefined),3.4,29,.,5,2,.,.
COc1ccc(CCNC(=O)CCNS(=O)(=O)c2cc(Br)cnc2N)cc1OC,4.0,6,8,6,-13,2,4723
Cc1nc(N)[nH]c(=O)c1CC(=O)OCCCl,4.4,0,7,3,-5,-15,4806
Cc1nn(-c2ccc(F)cc2)c(C)c1NS(=O)(=O)c1ccc(Cl)cc1,0.0,-3,0,.,.,-5,4059
CC(C)NC(=O)NC(=O)COC(=O)c1ccccc1O,-1.0,1,-7,12,-1,-11,4577
COc1cc(O)c(C(CC(=O)N2CCCCC2)c2ccc(N(C)C)cc2)c(OC)c1 (centres undefined),4.9,-6,-7,-1,3,-8,3924
CCc1ccc(OCC(=O)N(C)C)c(Br)c1,5.5,10,7,14,7,-66,5540
CN(C(=O)COC(=O)c1ccc(Cl)s1)C1(C#N)CCCCC1,4.8,11,.,7,-2,-5,.
O=C(c1ccc2c(c1)OCO2)N(c1ccc(Cl)cc1)C1C=CS(=O)(=O)C1 (centres undefined),9.4,0,5,5,-3,-1,8436
COc1ccccc1C(=O)NCCNc1ccc([N+](=O)[O-])cc1Cl,8.7,7,-9,-5,5,-48,3766
CN(CCc1ccccn1)C(=O)CCC1CCCN(C(=O)c2ccsc2)C1 (centres undefined),4.0,7,3,3,-6,-17,2433
C=C(C)C(=O)Nc1cccc(C2=NOC3(C2)C[C@H](C(N)=O)N(C(=O)/C=C/C)C3)c1 (some centres undefined),.,.,2,.,.,-15,2798
CCOc1cc(NC(=S)NCCCN2CCOCC2)c(OCC)cc1NC(=O)c1ccco1,-0.2,2,-6,16,2,-12,3378
Cc1ccsc1-c1cc(C(=O)O)c2c(ccc3ccccc32)n1,1.3,8,2,25,6,-31,3619
COc1ccc(S(=O)(=O)N2CCCCC2)cc1NC(=O)CSc1ncnc2ccccc12,3.8,-16,-3,8,-8,-5,2200
COC(=O)C1=C(Nc2ccc(OC)cc2)C=C(C)C(C(=O)OC)C1c1ccc(C)cc1 (centres undefined),15,31,10,-11,-7,-20,2591
CCOc1ccccc1N(CC(=O)N/N=C(\C)c1cccc(Br)c1)S(C)(=O)=O,.,.,-8,.,.,-4,4015
CCOC(=O)N1CCN(c2c(N3CCN(c4ccccc4F)CC3)c(=O)c2=O)CC1,-0.6,-3,-7,-1,-6,-9,6100
Nc1nnc(Sc2ccc(Cl)cc2[N+](=O)[O-])s1,3.0,5,-8,12,7,4,2051
C=CCn1c(SCCCC)nc(O)cc1=O,0.9&5.2,1&5,-8&6,5&5,-9&3,-27&-4,5796
O=C(NN=Cc1cccc2ccccc12)C1CC1,-2.5,-4,.,25,15,-41,4031
